Bioassay records deposited in PubChem BioAssay by National Center for Advancing Translational Sciences (NCATS).
ClpP mod = qHTS Assay for Activators of ClpP. ATP-dependent Clp protease proteolytic subunit (Bacillus subtilis (strain 168)), P80244. purified B. subtilis ClpP, FRET peptide cleavage, 20 min. Potency, µM (titrated, usually from 57.5 µM), for inactives: top-dose activity change, negative = active. 340,000 compounds, 1.9% hits. AID 651965, 2013; active = well fitted falling curve with a large enough effect; inconclusive = small, poorly fitted or top-dose-only effect; inactive = no such curve, though single readings can be large or run the other way; further: potency means the concentration at half of the fitted maximal effect; the source files actives as falling curves though it sought activators and does not explain the sign; nearly all actives have a fitted effect of over 65% in size; many hits overshoot -100%
Target sequence (P80244 whole entry, looked up): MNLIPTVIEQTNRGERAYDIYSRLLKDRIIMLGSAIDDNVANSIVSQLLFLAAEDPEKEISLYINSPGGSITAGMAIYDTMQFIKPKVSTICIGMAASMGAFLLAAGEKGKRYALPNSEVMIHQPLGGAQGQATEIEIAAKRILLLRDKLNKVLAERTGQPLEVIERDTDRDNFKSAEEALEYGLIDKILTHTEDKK
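Buffer: 100 mM Tris/HCl pH8, 100 mM KCl, 0.05% low protease BSA, 2.5% glycerol, 0.01% Tween-20. ClpP 10 microg/mL final; 20 min RT; delta FRET normalized to ADEP and DMSO controls.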
TRPML1 agonist = agonists of human TRPML1 channel; TRPML1-expressing cells, Ca2+ dye fluorescence, FDSS; host cell line not named in the record; reference of the full effect not given here; AID 624414; activation, % (no concentration beside the values); 410,000 compounds, 0.12% hits; Q9GZU1; in the data active = activation above about 50%; inconclusive = about 30% to 50%; inactive = below about 30%; further: 0% is about no effect; the text of the record puts the active cut at 80%
Target sequence (Q9GZU1 whole entry, looked up): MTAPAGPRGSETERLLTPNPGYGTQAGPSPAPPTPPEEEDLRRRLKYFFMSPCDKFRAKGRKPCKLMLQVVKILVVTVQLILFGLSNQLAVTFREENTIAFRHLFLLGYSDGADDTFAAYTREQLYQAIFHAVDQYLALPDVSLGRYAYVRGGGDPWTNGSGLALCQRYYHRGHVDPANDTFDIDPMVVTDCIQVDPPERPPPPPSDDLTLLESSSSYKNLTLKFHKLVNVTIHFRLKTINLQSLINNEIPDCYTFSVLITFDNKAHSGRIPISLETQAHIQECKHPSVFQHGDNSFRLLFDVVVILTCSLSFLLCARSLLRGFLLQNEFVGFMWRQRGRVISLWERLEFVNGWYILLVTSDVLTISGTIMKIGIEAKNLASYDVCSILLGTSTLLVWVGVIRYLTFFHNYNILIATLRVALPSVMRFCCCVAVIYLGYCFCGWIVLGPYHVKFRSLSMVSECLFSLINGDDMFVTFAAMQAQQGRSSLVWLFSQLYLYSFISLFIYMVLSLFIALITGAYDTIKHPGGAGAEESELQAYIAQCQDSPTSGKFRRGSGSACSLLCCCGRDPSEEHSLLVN
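In this qHTS format, compounds were pin-transferred onto Ca8-dye-loaded TRPML1-DL cells induced with Tet overnight, and intracellular Ca2+ fluorescence was recorded kinetically for 110 s after a 10 s baseline. A subsequent 4uM final 54-4 (EC80) addition followed by a second 110 s read served as the antagonist phase.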
gsp agonist = gsp mutant agonism. gsp mutant cells, cAMP HTRF, 30 min; control for the full effect not named in the record. Potency, µM (doses to about 76.9 µM), without a hit: at the highest dose activation (cAMP increase), usual class: activators. 340,000 compounds, 0.13% hits. AID 624287; active = well fitted activation curve with a large enough effect; inconclusive = small, poorly fitted or top-dose-only effect, or another doubt; inactive = no such curve, though single readings can be large or run the other way; cell line not stated here;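 further: phosphodiesterase inhibitor Ro 20-1724 added with compounds to block cAMP breakdown; potency means the concentration at half of the fitted maximal effect; nearly all actives have a fitted effect of over 60% in size; about a fifth of the inactives were tested at one dose only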
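Cells stably selected in G418 were plated at 2000/well, grown 16-24 hr, then given compounds in DMSO with the PDE inhibitor […] (300 uM solution added) for 30 min at 37C; cAMP was read by HTRF.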
gsp antag = antagonists of gsp mutant (McCune-Albright syndrome) | gsp-mutant cells, cAMP HTRF, 30 min; control for the full effect not named in the record | Potency, µM (top dose mostly 76.9 µM), for the others: at the highest dose activity change, negative = inhibition, most hits filed as inhibitors | 340,000 compounds, 0.4% hits; active = falling curve of any shape with a large fitted effect; inconclusive = falling curve, mostly with a smaller effect; inactive = flat or rising curve; cell line not stated here;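 further: intracellular cAMP measured with PDE inhibitor Ro 20-1724 present during compound exposure; potency means the concentration at half of the fitted maximal effect; on the % scale 0 is the no-effect control and ±100 the full control effect; nearly all actives have a fitted effect of over 65% in size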
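Cells in G418 medium, seeded 16-24 h, 37C; buffer exchange to DPBS + 1 mM CaCl2, 0.5 mM MgCl2, 0.05% BSA; cpds in DMSO + […] (300 uM stock), 30 min 37C; HTRF cAMP detection.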
TRPML1 blocker = inhibitors of human TRPML1 channel; TRPML1-inducible cells, Ca2+ dye fluorescence, FDSS; stronger effect = lower value; inhibition of EC80 agonist-evoked calcium signal; activity change, negative = inhibition, % (concentration not given with the values); AID 624415; Q9GZU1; 390,000 compounds, 0.02% hits; in the data active means activity change below about -50%; inconclusive means about -30% to -50%; inactive means above about -30%;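 further: stimulus is agonist 54-4 at its EC80 concentration; on the % scale 0 is the no-effect control and ±100 the full control effect; the text of the record puts the active cut at -80%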
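Calcium fluorescence in TRPML1-DL cells induced overnight with Tet: a 110 s read after compound pin addition, then a 110 s antagonist read after challenge with 54-4 at 4 uM final (EC80).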
Menin MLL FP FL = inhibitors of human menin-MLL interaction, wild-type MLL peptide; Fluorescence polarization, fluorescein-MLL peptide displacement from menin; AID 1766; FP activity change, % at 61.4 µM; 290,000 tested, under 10 active; inconclusive = falling polarisation curve, or a change in total fluorescence; inactive = total fluorescence flat and polarisation flat or rising; no compound was filed as active; the % refers to the polarisation; negative = inhibition;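 further: % of control where 0% means no effect; inhibitors lower the polarisation; unlabelled MLL peptide was the positive control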
Active calls of the source: *; u = inconclusive; x = not tested or not shown; & = joins results of further samples; [ ] = dose if it differs, or a comment. Not a hit list. About 2.1% of those tested had a hit in this group.

SMILES	ClpP mod	TRPML1 agonist	gsp agonist	gsp antag	TRPML1 blocker	Menin MLL FP FL
COc1ccc(OC)c(S(=O)(=O)N2CCC(C(=O)Nc3ccc(C)c(C)c3)CC2)c1	-0.9%	0.6	9%	28µM*	29	3.6
O=C(OCC(=O)N1CCOCC1)c1ccc2c(c1)OCCO2	1.1%	-0.1	-53%[inhibitor]	11%	-1	-0.7
Cc1[nH]c(=O)c(C(=O)c2ccccc2O)cc1C(=O)O	x	2.1	10%	9%	2	-1.1
c1ccc(CNCC2COc3ccccc3O2)cc1 (configuration not stated)	-1.1%	-0.5	-2%	9%	1	0.5
CCOC(=O)C1=C(COC(=O)COc2ccccc2OCC)NC(=O)NC1C (configuration not stated)	2.1%	-0.6	0%[15.4 µM]	1%	-7	x
Cc1ccc(C)n1-c1nn(S(=O)(=O)c2cccc3cccnc23)c2cccc(F)c12	x	0.4	13%[15.4 µM]	-18%	3	6.1
Cc1ccc(F)cc1NC(=S)NCCc1ccccc1	-0.2%	1.3	-13%	1%	13	8.8
CSc1nc2c(c(=O)[nH]1)C(c1cccc(Br)c1)CC(=O)N2 (configuration not stated)	x	-0.5	-18%[15.4 µM]	1%	-7	-5.4
N#Cc1ccc(OC(=O)C2CCN(C3=NS(=O)(=O)c4ccccc43)CC2)cc1	-4.8%	-0.6	-31%[inhibitor]	13%	4	x
COc1ccc2cc(C(C)C(=O)N3CCC(C(N)=O)CC3)ccc2c1 (configuration not stated)	x	0.5	u	2%	12	-5.5
c1ccc2c(-c3nnc(SCc4cn5ccccc5n4)o3)c[nH]c2c1	-13%	1.3	10%	20%	-11	-3.3
COc1ccc(CN(C(=O)CNC(=O)c2ccco2)C(C(=O)NCC2CCCO2)c2ccccc2)cc1 (configuration not stated)	x	0.4	-9%[15.4 µM]	-2%	-5	x
Cc1ccc(N2CC(C(=O)NC3CCSC3=O)CC2=O)cc1 (configuration not stated)	0.4%	-0.6	18%	-1%	-2	1.0
COc1ccc(Cl)cc1N(C)C(=O)c1cc2c(=O)oc3ccc(C)cc3c2s1	0.6%	-0.9	x	x	9	x
N#CCCN1CCN(S(=O)(=O)c2ccc(S(=O)(=O)NC3CCCC3)cc2)CC1	-0.3%	0.1	-47%[inhibitor]	5%	21	-0.2
COc1ccc(Cl)cc1S(=O)(=O)N1CCCc2ccccc21	-0.5%	-1.0	u	-17%	10	x
CCCCOC(=O)c1ccc(OC(=O)c2sc3ncn(Cc4ccccc4Cl)c(=O)c3c2C)cc1	-0.5%	0.6	x	x	23	x
Cn1ncc(Cl)c1C(=O)N1CCN(c2ccc(Cl)c(Cl)c2)CC1	16µM*	-0.1	8%[15.4 µM]	u	23	x
CC(C)c1ccc(NC(=O)c2cnc3sc(N4CCOCC4)nn3c2=O)cc1	u	2.0	x	x	1	x
Cn1c(=O)cc(OCCCC(=O)NC2CCCC2)c2ccccc21	-8.6%	0.3	4%	0%	-10	7.0
Cn1c(=O)oc2cc(S(=O)(=O)N3CCCC(C(=O)NCCc4ccccc4)C3)ccc21 (configuration not stated)	1.8%	-0.9	x	x	-20	x
CCOc1ccc(NC(=O)CN2CCSc3ccc(S(=O)(=O)N4CCCC4)cc32)cc1	u	1.3	x	x	5	x
COc1ccc(NC2CCCN(C(=O)CCCN3CCCCC3=O)C2)cc1 (configuration not stated)	-8.2%	1.7	-16%	-4%	12	-2.0
O=S(=O)(c1ccccc1)c1cc(O)ccc1O	x	0.0	-1%[15.4 µM]	x	-9	2.9
COc1cccc(CN2CCCN(Cc3ccc(F)cc3)S2(=O)=O)c1	-0.1%	4.0	x	x	49	x
COc1ccc(NC(=O)/C=C/c2cccc(F)c2)cn1	1.1%	0.0	21%[15.4 µM]	-16%	-2	x
CSc1ccc(CN2CCC(n3nccc3NC(=O)CCCc3ccccc3)CC2)cc1	-3.2%	0.1	10%	-11%	13	x
CCOC(=O)c1cccc(NC(=O)C(Cc2ccccc2)NS(=O)(=O)c2cccc3nsnc23)c1 (configuration not stated)	-5.3%	1.6	x	x	-4	x
COc1cc(N)ccc1NC(=O)c1cccs1	-0.6%	0.9	0%	-7%	0	0.6
CC(C)C(NC(=O)C1CCCCC1)C(=O)NCc1ccccn1 (configuration not stated)	-2.7%	0.4	-14%	3%[15.4 µM]	u	0.4
CCN1CCN(C(c2cccs2)C(C)NC(=O)c2ccccc2)CC1 (configuration not stated)	0.3%	0.0	u	8%	22	0.9
CCc1c(C)nn(C(=O)/C(C#N)=C\N(C)C)c1C	-0.3%	-0.6	u	6%	-2	1.1
CC(C)(C)C1C=C(Sc2ccccc2)C(=O)O1 (configuration not stated)	-0.8%	2.3	-49%[inhibitor]	6%	-6	x
COc1ccc(CNS(=O)(=O)c2cc(OCC(N)=O)c(C)cc2Cl)cc1	0.6%	-0.4	-26%	9%	37	5.5
Cc1cccc(C(=O)Nc2sc3c(c2C(=O)O)CCC3)c1	-2.0%	0.6	u	u	53	2.8
O=C(N/N=C/C(c1ccccc1)c1ccccc1)c1ccccc1F	x	0.4	3%	-15%	-6	2.6
C#CCCc1cscc1/C=[N+](\[O-])c1ccc(C(=O)OCC)cc1	1.5%	-0.7	x	0%	6	x
CCn1nc(C)c(CNC(=O)CC2C(=O)NCCN2CC(C)C)c1C (configuration not stated)	x	0.1	-17%[15.4 µM]	2%	17	-5.9
CNC[C@@H]1Oc2cc(Br)ccc2S(=O)(=O)N([C@H](C)CO)C[C@H]1C	-0.6%	-0.2	29%	x	8	x
O=C(NCc1ccc2c(c1)OCO2)C1CCCN(S(=O)(=O)c2cccnc2)C1 (configuration not stated)	-1.4%	-0.1	10%	-1%	-3	2.2
CCN(CC)S(=O)(=O)c1cc(NC(=O)CNc2c(C)n(C)n(-c3ccccc3)c2=O)ccc1C	x	0.5	3%	10%	12	-1.9
CCOc1ncccc1C(=O)Nc1ccc(F)c(F)c1	-0.8%	-1.7	-9%[15.4 µM]	-13%	-9	0.4
COc1cccc(-c2nc(CS(=O)CC(=O)NCc3ccc4c(c3)OCO4)c(C)o2)c1 (configuration not stated)	-12%	0.1	-19%	-1%	-8	-0.7
COc1ccc(-c2ccc(=O)n(Cc3ccc([N+](=O)[O-])cc3)n2)cc1	1.4%	0.9	-23%	8%	19	3.1
CCc1ccc(CN(C)C(=O)c2cc(COc3cncc(Cl)c3)on2)cc1	-3.5%	0.5	11%	x	7	x
COC(=O)CN1C(=S)N(Cc2ccccc2)C(=O)C1CC(=O)Nc1ccc(OC)cc1 (configuration not stated)	1.4%	0.6	22%	9%	10	3.7
CS(=O)(=O)N(Cc1ccccc1)c1ccc(C(=O)NCC2CCCO2)cc1 (configuration not stated)	-4.7%	-0.6	4%	9%	4	-2.5
C[C@@H]1OC(Nc2ccc(N=Nc3ccccc3)cc2)[C@H](O)[C@H](O)[C@H]1O (some centres not stated)	x	0.1	-12%[15.4 µM]	-8%	16	2.4
N=c1c(S(=O)(=O)c2ccc(F)cc2)cc2c(=O)n3ccccc3nc2n1CC1CCCO1 (configuration not stated)	-24%	0.6	u	-7%	-4	x
O=C(N=Nc1c(O)[nH]c2ccccc12)c1ccc2c(c1)OCO2	-1.9%	0.3	-31%[inhibitor]	8%	4	2.6
S=C(Nc1ccccc1)N1CCCCCC1	-4.1%	-0.7	-1%	14%	14	5.5
CCC(=O)Nc1cc(OC)c(NC(=S)Nc2ccccc2CC)cc1OC	0.8%	-0.2	35%	x	8	x
CCOc1ccc2nc(NC(=O)c3ccco3)sc2c1	x	0.5	-56%[inhibitor]	-5%	-10	-2.8
CCn1c(SCC(=O)Nc2ccc3c(c2)OCO3)nnc1-c1ccccc1O	0.3%	-0.4	-37%[inhibitor]	0%	4	-0.4
CCn1c(Cc2ccc(OC)cc2)nnc1SCC(=O)Nc1cccc(C(=O)OC)c1	1.2%	0.3	-40%[inhibitor]	-11%	11	5.7
O=C(Cc1ccccc1Cl)N1CCN(c2ccccn2)CC1	-0.1%	-1.0	9%[15.4 µM]	-2%	3	-4.8
Cc1oc(-c2ccccc2Cl)nc1CS(=O)CC(=O)NC1CC1 (configuration not stated)	-8.3%	3.1	-8%	-11%	-19	x
COC[C@H](NS(=O)(=O)c1ccc(Br)cc1F)[C@@H](O)c1ccccc1	-1.9%	0.8	-13%	x	20	x
CCCNc1nc2c(c(=O)[nH]c(=O)n2C)n1CCCc1ccccc1	0.2%	-0.2	14%	5%	12	4.7
CCOc1ccc(N(C(=O)c2snc(C(N)=O)c2N)C(C(=O)NCC2CCCO2)c2ccc(C)o2)cc1 (configuration not stated)	x	-0.5	-1%[15.4 µM]	-11%	-10	-1.9

Whole records as entered above. Order of screens: ClpP mod, TRPML1 agonist, gsp agonist, gsp antag, TRPML1 blocker, Menin MLL FP FL
Record of CCN1CCN(C(c2cccs2)C(C)NC(=O)c2ccccc2)CC1 (configuration not stated) → 0.3%, 0.0, u, 8%, 22, 0.9
Record of Cc1ccc(C)n1-c1nn(S(=O)(=O)c2cccc3cccnc23)c2cccc(F)c12 → x, 0.4, 13%[15.4 µM], -18%, 3, 6.1

Further records follow.
SMILES	ClpP mod	TRPML1 agonist	gsp agonist	gsp antag	TRPML1 blocker	Menin MLL FP FL
COc1ccc2c(c1)c1c(c(=O)n(Cc3ccccc3)c(=O)n1CC(=O)NCc1ccccc1Cl)n2C	u	-0.5	x	x	-2	x
Cc1cccc(CCN2C(N(C)C)=NC[C@@H]2Cc2ccccc2)c1	-5.2%	0.2	29%	14%	-10	x
CN(C(=O)c1ccccc1Cl)c1ccccc1	-0.6%	1.5	-14%	6%	-5	0.7
Cc1ccc(Cn2ccsc2=NC(=O)CCl)cc1	0.1%	1.6	-29%	-27%	-10	0.8
CC(C)(C)OC(=O)C[C@H]1C/C=C\C[C@@H](CC(=O)N(CCO)Cc2ccccc2)C(=O)N[C@@H](c2ccccc2)COC1=O	-13%	-1.1	x	-15%	-10	x
O=C(Cc1cc(=O)[nH][nH]1)N/N=C/C(Cl)=C/c1ccccc1	1.1%&-0.1%	-0.4&0.8	-40%&25%[inhibitor]	7%&-2%	12&-11	6.8&5.5
O=[N+]([O-])c1cc(S(=O)(=O)Nc2cccc(Cl)c2)ccc1N/N=C/c1ccc(N2CCOCC2)cc1	-3.2%	-0.5	8%	5%	-4	0.5
COC(=O)c1ccc(COC(=O)C2CCN(S(=O)(=O)c3c(Cl)cccc3Cl)CC2)o1	-2.6%	0.2	18%	1%	16	x
COc1ccc(CCCc2nnc(SCC(=O)Nc3cccc(C)c3)o2)cc1C	0.7%	1.2	x	x	-4	x
COc1ccc(C(C#N)C2(C)OCCO2)cc1OC (configuration not stated)	1.9%	0.0	-27%	6%	-19	8.4
CN(CC(=O)Nc1ccccc1Cl)C(=O)Cn1cnc2ccc(Cl)cc2c1=O	-2.1%	0.3	-16%	7%	3	x
